High-throughput results from PubChem BioAssay.
ClpP mod – qHTS Assay for Activators of ClpP; 340,000 tested, 1.9% active; purified B. subtilis ClpP, FRET peptide cleavage, 20 min; ATP-dependent Clp protease proteolytic subunit (Bacillus subtilis (strain 168)), P80244; Potency, µM (top dose mostly 57.5 µM), without a hit: at the highest dose activity change, negative = active; active = well fitted falling curve with a large enough effect; inconclusive = small, poorly fitted or top-dose-only effect; inactive = no such curve, though single readings can be large or run the other way; further: potency means the concentration at half of the fitted maximal effect; the source files actives as falling curves though it sought activators and does not explain the sign; nearly all actives have a fitted effect of over 65% in size; many hits overshoot -100%
Target sequence (P80244 whole entry, looked up): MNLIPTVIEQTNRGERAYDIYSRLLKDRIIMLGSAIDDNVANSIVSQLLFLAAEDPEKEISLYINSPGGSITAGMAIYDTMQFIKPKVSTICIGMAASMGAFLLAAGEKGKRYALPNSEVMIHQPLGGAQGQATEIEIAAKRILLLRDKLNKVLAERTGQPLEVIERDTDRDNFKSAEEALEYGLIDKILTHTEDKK
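FRET quenching reversal measured ClpP activation: 10 microg/mL B. subtilis ClpP at pH 8 with the FRET-FV decapeptide, read at 430 nm after 320 nm excitation. The 20-min minus 0-min signal was scaled between DMSO/no-enzyme wells and ADEP (5.8 microM final).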
D2 ag – agonists of human D2 dopamine receptor (beta-arrestin) | P14416 | DiscoveRx PathHunter D2 beta-arrestin, luminescence, 90 min; 100% = 57 uM dopamine signal | activation, % (test concentration not listed) | 360,000 tested, 0.084% active; in the data active = activation above about 40%; inconclusive = about 15% to 40%; inactive = below about 15%; further: compound concentration not given in the record; the text of the record calls up to 30% inactive
Target sequence (P14416 whole entry, looked up): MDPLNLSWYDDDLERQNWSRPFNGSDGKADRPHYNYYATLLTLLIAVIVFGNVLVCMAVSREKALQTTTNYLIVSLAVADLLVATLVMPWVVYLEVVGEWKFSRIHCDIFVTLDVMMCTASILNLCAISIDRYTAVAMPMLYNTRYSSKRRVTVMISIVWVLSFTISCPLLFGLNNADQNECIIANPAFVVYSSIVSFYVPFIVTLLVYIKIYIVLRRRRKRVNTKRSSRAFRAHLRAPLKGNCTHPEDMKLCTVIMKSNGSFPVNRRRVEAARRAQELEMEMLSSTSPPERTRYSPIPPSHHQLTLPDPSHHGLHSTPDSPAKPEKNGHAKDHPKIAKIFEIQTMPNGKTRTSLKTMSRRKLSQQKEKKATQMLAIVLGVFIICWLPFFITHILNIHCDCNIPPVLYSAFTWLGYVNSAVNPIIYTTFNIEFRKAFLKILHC
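Agonist mode: compounds alone added to overnight-plated D2 PathHunter cells for 90 min at 37 C, with 57 uM final dopamine (EC100) defining full response. Beta-arrestin recruitment detected by chemiluminescent reagent, read after 1 h at ambient temperature.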
PINK1 modulator – changes PINK1 expression | PINK1 immunofluorescence, high-content cytometry, 24 h | Potency, µM (doses to about 76.6 µM), without a hit: at the top dose activation (PINK1 increase), hits mostly activators | 410,000 tested, 0.2% active | AID 624263; active = well fitted activation curve with a large enough effect; inconclusive = small, poorly fitted or top-dose-only effect; inactive = flat fitted curve, though single readings scatter; cell line not stated here;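 further: potency means the concentration at half of the fitted maximal effect; % of control where 0% means no effect; nearly all actives have a fitted effect of over 65% in size; a mitochondrial uncoupler was the plate control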
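A stable cell line was treated with compounds at 5 concentrations for 24 hours, with CCCP as control. PINK1 levels and mitochondrial localization were measured by immunofluorescence with mitochondrial, cell and nuclear markers after fixation, read by laser-scanning cytometry.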
gsp antagonist – antagonizes gsp, the McCune-Albright syndrome mutation; gsp-mutant cells, cAMP HTRF, 30 min; control for the full effect not named in the record; 340,000 tested, 0.4% active; Potency, µM (top dose mostly 76.9 µM), for the others: top-dose activity change, negative = inhibition, most hits filed as inhibitors; active = falling curve of any shape with a large fitted effect; inconclusive = falling curve, mostly with a smaller effect; inactive = flat or rising curve; cell line not stated here;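 further: intracellular cAMP measured with PDE inhibitor Ro 20-1724 present during compound exposure; potency means the concentration at half of the fitted maximal effect; on the % scale 0 is the no-effect control and ±100 the full control effect; nearly all actives have a fitted effect of over 65% in size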
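Measurement of cellular cAMP by homogeneous time-resolved fluorescence following a 30 min compound exposure at 37C. The PDE inhibitor […] was present throughout; the assay buffer was DPBS with 0.05% BSA and 0.005% Tween 20.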
Menin MLL FP FL – inhibitors of human menin-MLL interaction, wild-type MLL peptide; Fluorescence polarization, fluorescein-MLL peptide displacement from menin; FP activity change, % at 61.4 µM; 290,000 tested, under 10 active; AID 1766; inconclusive = falling polarisation curve, or a change in total fluorescence; inactive = total fluorescence flat and polarisation flat or rising; no compound was filed as active; the % refers to the polarisation; negative = inhibition;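 further: % of control where 0% means no effect; inhibitors lower the polarisation; unlabelled MLL peptide was the positive control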
Sfp inh – blocks B. subtilis Sfp PPTase activity; Q9F4F7; Biochemical Sfp PPTase activity, qHTS; Potency, µM, for inactives: max response, negative = inhibition, hits mostly inhibitors; 310,000 tested, 3.5% active; AID 1490; active means well fitted inhibition curve with a large enough effect; inconclusive means small, poorly fitted or top-dose-only effect, or another doubt; inactive means no such curve, though single readings can be large or run the other way;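 further: the enzyme is Sfp with the accession as filed and its product quenches rhodamine fluorescence; potency means the concentration at half of the fitted maximal effect; 0% = enzyme reaction without inhibitor and -100% = no enzyme wells; top concentration of the series not given in the record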
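With Hepes-Na pH 7.6 buffer containing 10 mM MgCl2, Sfp (15 nM) modified BHQ-2-YbbR (12.5 uM) using rhodamine-CoA (5 uM). Two reads 30 minutes apart at 525/598 nm yielded each well's rate.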
gsp ag – activates gsp, the McCune-Albright syndrome mutation. gsp mutant cells, cAMP HTRF, 30 min; control for the full effect not named in the record. Potency, µM (doses to about 76.9 µM), for the others: at the highest dose activation (cAMP increase), hits mostly activators. AID 624287. 340,000 tested, 0.13% active; active = well fitted activation curve with a large enough effect; inconclusive = small, poorly fitted or top-dose-only effect, or another doubt; inactive = no such curve, though single readings can be large or run the other way; cell line not stated here;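 further: phosphodiesterase inhibitor Ro 20-1724 added with compounds to block cAMP breakdown; potency means the concentration at half of the fitted maximal effect; nearly all actives have a fitted effect of over 60% in size; about a fifth of the inactives were tested at one dose only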
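Cells stably selected in G418 were plated at 2000/well, grown 16-24 hr, then given compounds in DMSO with the PDE inhibitor […] (300 uM solution added) for 30 min at 37C; cAMP was read by HTRF.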
Numbers without * were called inactive; & = joins results of further samples; [ ] = remark or other dose.

How did CCN1CCN(Cc2c3ccccc3cc3ccccc23)CC1 do in these assays?
ClpP mod: inconclusive; D2 ag: -3.5; PINK1 modulator: 0.8%; gsp antagonist: -1%; Menin MLL FP FL: -6.2; Sfp inh: 2%; gsp ag: -4%[15.4 µM]

How did Cc1ccc(C(=O)Nc2nc(N)n(-c3ccccc3)n2)cc1 do in these assays?
ClpP mod: -0.8%; D2 ag: -6.7; PINK1 modulator: 2.5%; gsp antagonist: 8%; Menin MLL FP FL: 3.3; Sfp inh: -1%; gsp ag: -9%[15.4 µM]

How did COc1ccc(C)cc1NC(=O)COC(=O)c1ccc(OCc2ccc(Cl)cc2Cl)c(OC)c1 do in these assays?
ClpP mod: 1.4%; D2 ag: -1.2; PINK1 modulator: 9.2%; gsp antagonist: 8%; Menin MLL FP FL: 2.9; Sfp inh: inconclusive; gsp ag: -30%[inhibitor]

How did CC(C)c1ccccc1NC(=O)C1C2C=CC(C2)C1C(=O)O (stereo unspecified) do in these assays?
ClpP mod: 0.3%; D2 ag: 3.6; PINK1 modulator: -5.2%; gsp antagonist: 8%; Menin MLL FP FL: -0.6; Sfp inh: inconclusive; gsp ag: -59%[inhibitor]

Results for Cc1ccc(N(C(=O)c2snc(C(N)=O)c2N)C(C(=O)NC2CCCC2)c2ccco2)cc1 (stereo unspecified) ?
D2 ag: -0.4; PINK1 modulator: 0.5%; gsp antagonist: -11%; Menin MLL FP FL: -0.1; Sfp inh: -6%; gsp ag: 1%

What do the screens show for `CC(=O)NNC(=O)CCC(=O)Nc1ccccc1`?
ClpP mod: -1.9%; D2 ag: -1.2; PINK1 modulator: -5.1%[38.3 µM]; gsp antagonist: 5%; Menin MLL FP FL: 4.7; Sfp inh: -1%; gsp ag: 7%

How did COC(=O)C1CN(C(=O)C(C)Oc2ccc(C)c(C)c2)c2ccccc2O1 (stereo unspecified) do in these assays?
ClpP mod: -1.0%; D2 ag: -0.8; PINK1 modulator: 3.7%; gsp antagonist: -10%; Menin MLL FP FL: 3.6; Sfp inh: 5%; gsp ag: -38%[inhibitor]

Results for COc1cc(OC)cc(C(=O)NCCN2CCOCC2)c1 ?
ClpP mod: -11%; D2 ag: -2.3; PINK1 modulator: -1.0%; gsp antagonist: 11%; Menin MLL FP FL: 0.3; Sfp inh: -21%; gsp ag: 1%

What do the screens show for `O=C1C2C3C=CC(C3)C2C(=O)N1CCc1ccccc1` (stereo unspecified)?
ClpP mod: 1.1%; D2 ag: 0.8; PINK1 modulator: -5.8%[38.3 µM]; gsp antagonist: 7%; Menin MLL FP FL: 3.3; Sfp inh: 6%; gsp ag: -57%[inhibitor]

What do the screens show for `CCc1ccc(C(=O)NNC(=O)c2cc(S(=O)(=O)N(C)C)ccc2N2CCCC2)cc1`?
ClpP mod: 1.4%; D2 ag: 2.4; PINK1 modulator: -1.2%; gsp antagonist: 8%; Sfp inh: 34%[activator]; gsp ag: -124%[inhibitor]

Results for NC(=O)c1cc[n+](Cc2ccccc2Cl)cc1 ?
D2 ag: 1.7; PINK1 modulator: 1.3%; gsp antagonist: 8%; Menin MLL FP FL: 1.0; Sfp inh: 9%; gsp ag: -1%

How did CC(=O)Nc1ccc(OS(=O)(=O)c2ccc(C)cc2C)cc1 do in these assays?
D2 ag: 0.5; PINK1 modulator: 5.5%; gsp antagonist: -11%; Menin MLL FP FL: 1.4; Sfp inh: -7%; gsp ag: 11%

Results for CC(C)C(=O)C1=Cc2cccc([N+](=O)[O-])c2OC1N1CCOCC1 (stereo unspecified) ?
ClpP mod: -2.4%; D2 ag: -6.3; PINK1 modulator: 1.7%; gsp antagonist: -21%; gsp ag: 5%

What do the screens show for `CC1(c2ccc(Cl)cc2)NC(=O)N(CC(=O)NC(=O)NCc2ccco2)C1=O` (stereo unspecified)?
ClpP mod: -2.1%; D2 ag: 2.2; PINK1 modulator: -2.7%[38.3 µM]; gsp antagonist: -1%; Menin MLL FP FL: 1.2; Sfp inh: 3%; gsp ag: -25%

What do the screens show for `CCOC(=O)N1CCC(NC(=O)CSc2cc(=O)n(C)c3ccccc23)CC1`?
ClpP mod: -11%; D2 ag: -1.8; PINK1 modulator: -0.4%; gsp antagonist: -3%; Menin MLL FP FL: -3.2; Sfp inh: 9%; gsp ag: inconclusive

What do the screens show for `CCC(=O)Nc1nc(C)c(C(=O)NC2CCCCC2)s1`?
ClpP mod: -1.5%; D2 ag: 0.1; PINK1 modulator: 0.7%; gsp antagonist: 12%; Menin MLL FP FL: 0.7; Sfp inh: 6%; gsp ag: -49%[inhibitor]

Results for CN(C)c1ccc(/C=N/NC(=O)COc2ccccc2)cc1 ?
D2 ag: 0.8; PINK1 modulator: 1.5%; gsp antagonist: -14%; Menin MLL FP FL: -2.6; Sfp inh: 3%; gsp ag: 1%

Results for Cc1ccc(CN(C)C(=O)c2cccc(S(=O)(=O)N3CCc4ccccc43)c2)cc1 ?
D2 ag: -2.9; PINK1 modulator: 2.3%; gsp antagonist: -26%; gsp ag: -31%[inhibitor]

What do the screens show for `CC(C)(C)C(=O)Oc1cc(N)n(S(=O)(=O)c2ccccc2)n1`?
ClpP mod: 3.3%; D2 ag: 0.2; PINK1 modulator: 6.2%; gsp antagonist: 3%; Menin MLL FP FL: 3.6; Sfp inh: 2%; gsp ag: -2%

What do the screens show for `CN(C)/C=N/C(=S)Nc1ccc(F)cc1`?
ClpP mod: inconclusive; D2 ag: -2.2; PINK1 modulator: -0.6%; gsp antagonist: 2%; Menin MLL FP FL: 0.1; Sfp inh: -3%; gsp ag: 4%

How did CCOC(=O)c1c(NC(=O)c2ccoc2C)sc(C(=O)N(C)C)c1C do in these assays?
ClpP mod: -20%; D2 ag: -1.7; PINK1 modulator: 0.3%; gsp antagonist: 2%; Menin MLL FP FL: 0.8; Sfp inh: -9%; gsp ag: 5%

What do the screens show for `Cc1cc(N2CCCC2)nc2ccc(NC(=S)NCCCOC(C)C)cc12`?
ClpP mod: -11%; D2 ag: 0.7; PINK1 modulator: 0.1%; gsp antagonist: -1%; Menin MLL FP FL: -4.1; Sfp inh: -6%; gsp ag: -22%

How did COc1ccc(CNC(=O)CN2C(=O)COc3ccc(S(=O)(=O)N4CCCCC4)cc32)cc1 do in these assays?
ClpP mod: -2.5%&0.5%; D2 ag: -1.0; PINK1 modulator: 2.6%&0.1%; gsp antagonist: -7%; Menin MLL FP FL: 2.8; Sfp inh: 4%; gsp ag: -24%

How did COc1ccccc1OCC(=O)NNC(=O)CCCC(=O)NNC(=O)COc1ccccc1OC do in these assays?
ClpP mod: 0.5%; D2 ag: -3.3; PINK1 modulator: 1.5%; gsp antagonist: -1%; Menin MLL FP FL: -2.8; Sfp inh: -1%; gsp ag: -2%

Results for CN(C)S(=O)(=O)c1cc(NC(=O)C2=COCCO2)ccc1Cl ?
ClpP mod: -3.4%; D2 ag: -2.5; PINK1 modulator: 0.4%; gsp antagonist: -4%; gsp ag: 3%

How did COc1ccc(CCNC(=O)c2nnn(CC(=O)Nc3ccccc3C)c2N)cc1OC do in these assays?
ClpP mod: -1.6%; D2 ag: 2.1; PINK1 modulator: -1.8%; gsp antagonist: -5%; Menin MLL FP FL: 4.5; Sfp inh: -9%; gsp ag: 0%

Results for Cc1cc(C)n(CC(C)NCc2c(C(=O)N3CCOCC3)nc3c(C)cccn23)n1 (stereo unspecified) ?
ClpP mod: -7.9%; D2 ag: 5.3; PINK1 modulator: 1.2%; gsp antagonist: -19%; Menin MLL FP FL: 2.1; Sfp inh: 15%; gsp ag: -53%[inhibitor]

Results for CCCCOCC1CC(CC#CCN2CCCCC2)C(=O)O1 (stereo unspecified) ?
D2 ag: 3.8; PINK1 modulator: -0.6%; gsp antagonist: 4%; Menin MLL FP FL: 0.2; Sfp inh: -14%; gsp ag: 25%

What do the screens show for `CCOc1c(C)cnc2c1c(=O)n(Cc1ccc(Cl)cc1)c(=O)n2C`?
ClpP mod: 0.9%; D2 ag: 1.7; PINK1 modulator: 0.8%; gsp antagonist: -11%; Menin MLL FP FL: 0.0; Sfp inh: 3%; gsp ag: 91%

Results for Cc1ccc(SCCC(=O)N/N=C/c2ccccc2O)cc1 ?
D2 ag: -0.6; PINK1 modulator: 1.5%; gsp antagonist: -1%; Menin MLL FP FL: 0.5; Sfp inh: 2%; gsp ag: 6%

How did CCC(=O)N=C1SC2CS(=O)(=O)CC2N1c1cccc(OC)c1 (stereo unspecified) do in these assays?
ClpP mod: 0.6%; D2 ag: 0.4; PINK1 modulator: -1.7%; gsp antagonist: 8%; Menin MLL FP FL: 1.6; Sfp inh: 6%; gsp ag: 14%

How did CCOc1ccc(N(CC(N)=O)S(=O)(=O)c2ccc(F)cc2)cc1 do in these assays?
ClpP mod: 1.5%; D2 ag: -1.0; PINK1 modulator: -0.1%; gsp antagonist: 6%; Menin MLL FP FL: 1.0; Sfp inh: 4%; gsp ag: inconclusive

What do the screens show for `COc1ccc(NC(=O)Cc2c(F)cccc2Cl)c(OC)c1`?
ClpP mod: 0.8%; D2 ag: -2.0; PINK1 modulator: -1.5%; gsp antagonist: -6%; Menin MLL FP FL: 9.3; Sfp inh: 10%; gsp ag: 11%

Results for OCc1cnc(SCc2ccccc2)n1Cc1ccccc1 ?
D2 ag: -0.7; PINK1 modulator: -0.9%; gsp antagonist: 0%; Menin MLL FP FL: 0.0; Sfp inh: 2%; gsp ag: -22%

What do the screens show for `COc1ccc2cc(CN(Cc3cccnc3)Cc3nnnn3Cc3ccccc3)c(=O)[nH]c2c1`?
ClpP mod: -7.8%; D2 ag: 0.4; gsp antagonist: -14%; Menin MLL FP FL: 5.2; Sfp inh: 8%; gsp ag: -27%

Results for NC(=O)c1ccsc1NC(=O)COC(=O)c1cnccn1 ?
ClpP mod: -10%; D2 ag: 2.4; PINK1 modulator: 0.6%; gsp antagonist: 13%; gsp ag: 13%
